AF4-AF9 inh = blocks AF4 peptide binding to human AF9; P42568; AlphaScreen, biotin-AF4 peptide binding to FLAG-AF9; inhibition, % at 10 µM; hit rate 0.47% among 350,000; AID 651704;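 active = every replicate reaching a set inhibition limit, whatever the replicate mean, cut at about 25% in these data; inconclusive = mean inhibition reaches that limit but some replicates miss it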;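 note: 0% = plate neutral control median and 100% = total signal loss; the record names both 10 and 1 µM as test concentration; the first replicate is given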
Target sequence (P42568 whole entry, looked up): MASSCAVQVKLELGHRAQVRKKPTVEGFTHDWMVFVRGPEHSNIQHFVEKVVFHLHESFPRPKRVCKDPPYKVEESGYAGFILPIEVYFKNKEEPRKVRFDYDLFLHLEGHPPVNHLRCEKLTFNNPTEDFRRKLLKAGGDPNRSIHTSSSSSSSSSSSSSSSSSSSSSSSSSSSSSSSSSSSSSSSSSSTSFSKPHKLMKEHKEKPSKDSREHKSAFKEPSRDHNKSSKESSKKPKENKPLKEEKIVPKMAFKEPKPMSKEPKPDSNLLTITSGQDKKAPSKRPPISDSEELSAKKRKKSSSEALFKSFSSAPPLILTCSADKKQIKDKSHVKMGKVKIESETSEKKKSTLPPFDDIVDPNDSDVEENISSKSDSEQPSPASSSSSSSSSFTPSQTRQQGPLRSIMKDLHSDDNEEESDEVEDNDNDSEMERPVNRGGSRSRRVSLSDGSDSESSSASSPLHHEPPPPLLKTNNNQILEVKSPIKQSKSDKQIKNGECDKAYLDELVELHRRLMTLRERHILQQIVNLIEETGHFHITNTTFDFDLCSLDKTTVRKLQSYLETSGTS
Ecoli rRNA inh = inhibitors of bacterial rRNA selective over humanized ribosomes. E. coli WT GFP vs humanized-ribosome RFP mutants, fluorescence, 24 h; hits give low values; DMSO median 0, no signal -100. hit rate 1.6% among 350,000. AID 720706. GFP signal change (wild-type ribosome), % (concentration not given with the values);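 active = significant combined selectivity score with lowered wild-type GFP, culture density cut under 30%, mutant RFP and density less affected; inactive = any of these conditions unmet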; note: one replicate is shown; some compounds called inactive have numbers as strong as hits
Ecoli rRNA inh OD600 = further read-out of Ecoli rRNA inh, marked with its call; OD600 change, %; measured here: OD600 growth;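 optical density of the mix in the first replicate; 0 = DMSO median and -100 = no signal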
Ecoli rRNA inh RFP = also measured in Ecoli rRNA inh; calls as there; RFP signal change, %; measured here: RFP humanized mutant strains;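 first replicate; 0 = DMSO median and -100 = no signal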
* = called active by the depositor; ? = inconclusive. This is a subset, so the mix of outcomes need not match the whole.

SMILES | AF4-AF9 inh | Ecoli rRNA inh | Ecoli rRNA inh OD600 | Ecoli rRNA inh RFP
C[C@H](CO)N1C[C@H](C)[C@H](CN(C)S(=O)(=O)c2cccc(F)c2)Oc2ncccc2C1=O | -7.3 | 4.9 | 11.4 | -2.9
CCC(=O)N1C[C@@H](C)[C@H](OC)CN(C)C(=O)c2cc(NC(=O)c3ccc(F)cc3)ccc2OC[C@H]1C | 0.2 | -0.2 | 2.7 | 0.6
C[C@H](CO)N1C[C@H](C)[C@H](CN(C)C(=O)Nc2cccc3ccccc23)Oc2ccc(NS(=O)(=O)c3ccccc3)cc2C1=O | -1.7 | 1.1 | -6.0 | 6.0
CCNC(=O)N(C)c1c(CC)nc2ccc(C(=O)Nc3cccc(OCC(=O)N(C)C)c3)cn12 | -2.1 | 2.6 | 11.9 | -3.6
C[C@H](O)C#Cc1cnc2c(c1)C(=O)N([C@H](C)CO)C[C@@H](C)[C@@H](CN(C)C(=O)CC1CC1)O2 | 0.8 | -5.3 | 3.7 | 0.7
CCCC(=O)N1CC2(C1)CN(Cc1ccc(Cl)cc1)[C@H](CO)c1[nH]c3cc(OC)ccc3c12 | 0.6 | -6.0 | -28.6 | 2.6
COc1ccc(NC(=O)Nc2ccc3c(c2)CC(=O)N([C@H](C)CO)C[C@H](C)[C@H](CN(C)C(=O)NC2CCCCC2)O3)cc1 | 0.0 | 3.1 | -0.5 | -1.8
CCN(CC(=O)Nc1ccc(NC(C)=O)cc1)C(=O)c1cc(-c2ccccc2Cl)nc2ccccc12 | 5.7 | 0.0 | -9.0 | -9.2
CCOC(=O)C[C@@H]1OC2CCCCC2N1S(=O)(=O)c1ccc(C)cc1 (some centres not stated) | 1.5 | -26.9 | -40.5 | -6.6
COc1ccccc1-c1cnc2c(c1)C(=O)N([C@@H](C)CO)C[C@H](C)[C@H](CN(C)C(=O)c1cccnc1)O2 | -2.2 | -0.9 | 1.1 | -1.7
C[C@@H](NC(=O)C[C@H]1CC[C@@H](NC(=O)C2CC2)[C@H](CO)O1)c1ccccc1 | -1.5 | 0.4 | -4.1 | 0.8
CO[C@@H](CN(C)S(=O)(=O)c1ccc(F)cc1)[C@@H](C)CN(Cc1ccccc1Cl)[C@@H](C)CO | -1.3 | -4.8 | -17.6 | -0.8
C[C@H]1CN([C@@H](C)CO)C(=O)c2cccc(NC(=O)C3CCCCC3)c2O[C@H]1CN(C)C(=O)Nc1ccc(F)cc1 | 0.3 | 0.1 | 5.1 | -0.5
COc1ccccc1CNC(=O)C[C@@H]1CC[C@@H](NC(=O)CN(C)C)[C@@H](CO)O1 | -1.7 | 1.7 | 5.1 | -1.5
Cc1cc(Cl)ccc1C(O)c1ncc(-c2cccc(F)c2)[nH]1 (configuration not stated) | 9.3 | -10.4 | -21.7 | 1.6
CCOC(=O)[C@]12CCCC=C1N(Cc1ccc3c(c1)OCO3)C(=O)[C@H](CC(=O)N1CCN(C(=O)C3CC3)CC1)C2 | 1.2 | 9.9 | 11.2 | 1.9
C[C@@H]1CN([C@@H](C)CO)C(=O)c2cccc(NC(=O)NC3CCCCC3)c2O[C@H]1CN(C)S(=O)(=O)c1ccc(Cl)cc1 | 0.7 | -7.0 | -9.3 | -1.6
Cc1ccc(-c2ccc3c(c2)O[C@@H](CN(C)C(=O)Nc2ccc(C(F)(F)F)cc2)[C@@H](C)CN([C@@H](C)CO)S3(=O)=O)cc1 | -1.0 | 3.6 | 0.6 | 1.9
COc1ccccc1C(CNC(=O)c1ccc(NS(=O)(=O)c2ccc(C(C)=O)cc2)cc1)N1CCCC1 (configuration not stated) | -7.2 | 1.7 | -2.6 | 4.5
C[C@H](CO)N1C[C@H](C)[C@@H](CN(C)S(=O)(=O)c2ccccc2)OCCCC[C@H](C)Oc2ccc(NS(=O)(=O)c3ccc(Cl)cc3)cc2C1=O | 1.6 | -3.2 | -7.5 | 0.3
CCOC(=O)C1(C)CCCN(C(=O)C(c2ccccc2)c2ccccc2)C1 (configuration not stated) | 0.9 | -15.9 | -24.2 | -2.1
COCCCN1C(=O)C(CC(=O)NC2CC2)CC(C(=O)N(C(C)C)C(C)C)=C1C (configuration not stated) | -1.2 | 8.3 | 18.0 | -1.8
CC(C)NC(=O)Nc1ccc2c(c1)CC(=O)N([C@H](C)CO)C[C@H](C)[C@H](CN(C)C(=O)Nc1ccc3c(c1)OCO3)O2 | -4.2 | 4.5 | 11.7 | 0.0
C[C@H](O)C#Cc1cnc2c(c1)C(=O)N([C@@H](C)CO)C[C@H](C)[C@@H](CN(C)Cc1cccc(F)c1)O2 | -0.7 | -3.5 | 1.2 | 0.2
O=C(C[C@H]1CC[C@H]2[C@@H](COC[C@H](O)CN2C(=O)c2ccccc2F)O1)NCc1ccc(F)cc1 | -3.3 | 2.5 | 2.1 | 7.4
The listing continues:
SMILES | AF4-AF9 inh | Ecoli rRNA inh | Ecoli rRNA inh OD600 | Ecoli rRNA inh RFP
O=C1CN(S(=O)(=O)c2cccc(F)c2)C[C@@H]2[C@H](c3ccc(C4=CCCC4)cc3)[C@H](CO)N12 | -0.7 | 2.9 | -6.7 | 1.3
C[C@H](CO)N1C[C@H](C)[C@@H](CN(C)C(=O)Nc2ccc(C(F)(F)F)cc2)Oc2ccc(NS(=O)(=O)c3ccc(Cl)cc3)cc2CC1=O | 1.5 | 2.6 | -6.9 | 0.1
N#C[C@H]1[C@@H](c2ccc(C3=CCCCC3)cc2)[C@H](CO)N1C(=O)c1ccccn1 | 2.4 | 1.7 | -0.6 | -0.5
C[C@@H]1CN([C@@H](C)CO)C(=O)Cc2cc(NS(=O)(=O)c3ccc(Cl)cc3)ccc2O[C@@H]1CN(C)Cc1ccc2c(c1)OCO2 | -5.6 | 5.7 | -18.4 | 17.6
COCC#Cc1ccc2c(c1)O[C@H](CN(C)C(C)=O)[C@H](C)CN([C@@H](C)CO)S2(=O)=O | -4.1 | 1.1 | 1.9 | 0.2
CCCNC(=O)N1CCC2(CC1)CN(C(=O)Nc1ccc(F)cc1)[C@@H](CO)c1[nH]c3cc(OC)ccc3c12 | 2.3 | -1.3 | 2.1 | 3.8
C[C@@H]1CCCCO[C@H](CN(C)S(=O)(=O)c2cn(C)cn2)[C@@H](C)CN([C@@H](C)CO)C(=O)c2cc(NC(=O)Nc3cccc4ccccc34)ccc2O1 | 3.4 | -5.5 | -5.4 | -1.3
COc1cccc(-c2ccc3c(c2)[C@H]2[C@H](CCN2C(=O)C2CC2)[C@H](CO)N3)c1 | 12.0 | -0.1 | -7.6 | 23.3
C[C@@H]1CN([C@H](C)CO)S(=O)(=O)c2ccc(C3=CCCC3)cc2O[C@@H]1CN(C)C(=O)C1CCCCC1 | 0.9 | -4.7 | -5.0 | 6.6
C[C@@H]1CN([C@H](C)CO)C(=O)c2cccc(NS(=O)(=O)c3ccc(Cl)cc3)c2O[C@H]1CN(C)S(=O)(=O)c1ccc(Cl)cc1 | 2.1 | -0.7 | -6.3 | 1.5
Cc1cccc(-c2ccc([C@H]3[C@H]4CN(C(=O)Cc5ccccn5)CC(=O)N4[C@H]3CO)cc2)c1 | 2.6 | 0.1 | -1.4 | -3.9
CCOc1cc(C(=O)OC(C)C(=O)Nc2ccccc2OC)ccc1OCC(=O)N1CCOCC1 (configuration not stated) | -0.7 | -15.3 | -18.8 | -5.0
O=C(C[C@H]1C=C[C@@H](NS(=O)(=O)c2ccc(F)cc2)[C@@H](CO)O1)NCc1ccc(Cl)c(Cl)c1 | -1.2 | -9.5 | -27.4 | -2.5
O=C(O)C[C@@H]1C[C@H]2c3cc(NC(=O)Nc4ccc(C(F)(F)F)cc4)ccc3O[C@H]2[C@H](CO)O1 | 0.7 | 0.5 | 0.7 | -1.4
CC(C)NC(=O)N(C)C[C@H]1Oc2c(NC(=O)Nc3ccc(C(F)(F)F)cc3)cccc2C(=O)N([C@@H](C)CO)C[C@@H]1C | -2.7 | 5.7 | -5.5 | -0.2
C[C@@H]1CN([C@@H](C)CO)C(=O)Cc2cc(NS(=O)(=O)c3cccs3)ccc2O[C@H]1CN(C)CC1CC1 | 0.5 | 4.3 | 14.6 | -0.4
COc1cccc(S(=O)(=O)N[C@H]2C=C[C@@H](CC(=O)NC3CCC3)O[C@H]2CO)c1 | -2.2 | 0.5 | -7.0 | -1.4
C[C@@H]1CN([C@@H](C)CO)S(=O)(=O)c2ccc(-c3ccncc3)cc2O[C@@H]1CN(C)Cc1ccc(Oc2ccccc2)cc1 | 1.9 | -4.3 | -9.8 | 2.2
Cc1noc(C)c1NC(=O)N(C)C[C@H]1OCCCC[C@@H](C)Oc2ccc(NC(=O)CCC(F)(F)F)cc2C(=O)N([C@H](C)CO)C[C@@H]1C | -1.7 | 1.5 | 5.3 | -3.0
COCC(=O)N1[C@H](C#N)[C@@H](c2ccccc2-c2ccccc2F)[C@H]1CO | -1.3 | -0.6 | 0.7 | 0.4
CCCN(C)C[C@@H]1OCCCC[C@@H](C)Oc2ccc(NC(=O)Nc3ccc(C(F)(F)F)cc3)cc2C(=O)N([C@H](C)CO)C[C@@H]1C | 4.4 | 1.4 | -8.5 | 1.8
C[C@@H]1CN([C@@H](C)CO)C(=O)c2cccc(NS(=O)(=O)c3cn(C)cn3)c2O[C@H]1CN(C)C(=O)Nc1cccc2ccccc12 | 0.0 | 3.0 | 13.8 | -0.8
COCC(=O)Nc1ccc2c(c1)C(=O)N(C)C[C@@H](OC)[C@@H](C)CN(Cc1ccccn1)[C@H](C)CO2 | -7.5 | 5.5 | -0.6 | 0.8
CC=Cc1ccc2n(c1=O)C[C@@H]1[C@@H](CO)[C@H](C(=O)N[C@@H](C)c3ccccc3)N(C(=O)c3ccccn3)[C@H]21 (mixture of isomers) | -1.5 | 0.0 | 12.8 | 1.5
CCN1[C@@H]2c3ccc(C4=CCCCC4)c(=O)n3C[C@@H]2[C@@H](CO)[C@@H]1C(=O)N(C)C | -0.7 | -2.3 | 6.7 | 1.4

Full records from above.
COCC#Cc1ccc2c(c1)O[C@H](CN(C)C(C)=O)[C@H](C)CN([C@@H](C)CO)S2(=O)=O in the list: AF4-AF9 inh = -4.1; Ecoli rRNA inh = 1.1; Ecoli rRNA inh OD600 = 1.9; Ecoli rRNA inh RFP = 0.2
C[C@@H]1CN([C@@H](C)CO)C(=O)c2cccc(NS(=O)(=O)c3cn(C)cn3)c2O[C@H]1CN(C)C(=O)Nc1cccc2ccccc12 in the list: AF4-AF9 inh = 0.0; Ecoli rRNA inh = 3.0; Ecoli rRNA inh OD600 = 13.8; Ecoli rRNA inh RFP = -0.8
Cc1cccc(-c2ccc([C@H]3[C@H]4CN(C(=O)Cc5ccccn5)CC(=O)N4[C@H]3CO)cc2)c1 in the list: AF4-AF9 inh = 2.6; Ecoli rRNA inh = 0.1; Ecoli rRNA inh OD600 = -1.4; Ecoli rRNA inh RFP = -3.9

Following part
SMILES | AF4-AF9 inh | Ecoli rRNA inh | Ecoli rRNA inh OD600 | Ecoli rRNA inh RFP
CO[C@@H]1CN(C)C(=O)c2cc(NS(C)(=O)=O)ccc2OC[C@@H](C)N(C(=O)CC2CC2)C[C@H]1C | -0.2 | 1.7 | 0.4 | -0.5
C[C@@H]1CN([C@H](C)CO)C(=O)Cc2cc(NC(=O)Nc3ccccc3)ccc2O[C@@H]1CN(C)C(=O)Nc1ccc(F)cc1 | -1.1 | 4.5 | -2.5 | 0.5
O=C(C[C@H]1CC[C@H](NC(=O)NC2CCCCC2)[C@@H](CO)O1)NCc1ccc(Cl)cc1 | -2.2 | -5.3 | -1.4 | -3.2
COc1ccc(S(=O)(=O)N(C)C[C@@H]2OCCCC[C@H](C)Oc3ccc(N(C)C)cc3C(=O)N([C@@H](C)CO)C[C@@H]2C)cc1 | ? | -6.6 | -15.0 | 0.3
CCOC(=O)[C@]12CCC=C1N(Cc1ccco1)C(=O)[C@H](CC(=O)NCc1ccc(C)o1)C2 | -3.9 | 10.6 | 13.1 | 5.7
C[C@H]1CN([C@@H](C)CO)C(=O)c2ccccc2-c2ccccc2CO[C@H]1CN(C)C(=O)Oc1ccccc1 | -1.5 | -1.2 | -0.8 | 4.0
C[C@@H]1CCCCO[C@@H](CN(C)C(=O)NC2CCCCC2)[C@H](C)CN([C@H](C)CO)C(=O)c2cc(NS(=O)(=O)c3cccs3)ccc2O1 | -1.4 | -5.0 | -13.7 | 3.0
COc1ccc(NC(=O)Nc2cccc3c2O[C@H](CN(C)C(=O)Nc2ccccc2)[C@@H](C)CN([C@@H](C)CO)C3=O)cc1 | 0.4 | -1.2 | 3.0 | -3.6
C[C@H]1CN([C@@H](C)CO)C(=O)c2cc(C3=CCCCC3)cnc2O[C@@H]1CN(C)C(=O)c1cccc(F)c1 | -4.3 | -10.6 | 2.3 | 0.2
C[C@@H]1CN([C@H](C)CO)C(=O)c2cc(NC(=O)NC3CCCCC3)ccc2O[C@@H]1CN(C)Cc1ccncc1 | -2.7 | -1.2 | 0.0 | -3.0
CCCS(=O)(=O)NC(=O)C1(C)CCN(C(=O)c2ccc(F)c(Cl)c2)C1 (configuration not stated) | -0.1 | 10.6 | 14.0 | 1.9
C[C@@H]1CN([C@H](C)CO)C(=O)c2cc(NC(=O)CCN3CCOCC3)ccc2O[C@@H]1CN(C)C(=O)Nc1ccc(C(F)(F)F)cc1 | -10.4 | -8.3 | -13.8 | -3.3
C[C@@H]1CN([C@@H](C)CO)C(=O)c2cc(C3=CCCC3)cnc2O[C@H]1CN(C)Cc1ccc(F)cc1 | 2.8 | -0.8 | 1.2 | 1.5

Compound activity (PubChem BioAssay)
